# Yeast UUG start: yeast start codon fidelity modulation. 0.13% of 350,000 active. activity score, % at 18.7 µM. S. cerevisiae UUG-firefly luciferase reporter, luminescence/redox ratio;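 active = replicate mean at a twofold rise or more, about +100% in these data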;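 note: firefly luciferase made from a UUG start codon reports start codon fidelity; reporter light over untreated wells divided by growth signal over untreated wells; some hits fall short of that in this replicate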
# PABP polyA inh: PABP-poly(A) binding inhibition. inhibition, % at 35 µM. P11940. PABP-poly(A) RNA binding, fluorescence polarization. 1% of 290,000 active;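 active = 50% or more with normal probe brightness, or confirmed in later tests; inconclusive = above 50% with abnormal brightness, or retests that disagree; inactive = below 50% or failed in later tests; about a fifth of its hits are not listed in these tables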;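 note: calls also rest on retests at 20 µM and on dose response follow-up; controls were probe without protein and protein plus probe with vehicle; some compounds called inactive have numbers as strong as hits; many hits fall short of the cut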
# Target sequence (P11940 whole entry, looked up): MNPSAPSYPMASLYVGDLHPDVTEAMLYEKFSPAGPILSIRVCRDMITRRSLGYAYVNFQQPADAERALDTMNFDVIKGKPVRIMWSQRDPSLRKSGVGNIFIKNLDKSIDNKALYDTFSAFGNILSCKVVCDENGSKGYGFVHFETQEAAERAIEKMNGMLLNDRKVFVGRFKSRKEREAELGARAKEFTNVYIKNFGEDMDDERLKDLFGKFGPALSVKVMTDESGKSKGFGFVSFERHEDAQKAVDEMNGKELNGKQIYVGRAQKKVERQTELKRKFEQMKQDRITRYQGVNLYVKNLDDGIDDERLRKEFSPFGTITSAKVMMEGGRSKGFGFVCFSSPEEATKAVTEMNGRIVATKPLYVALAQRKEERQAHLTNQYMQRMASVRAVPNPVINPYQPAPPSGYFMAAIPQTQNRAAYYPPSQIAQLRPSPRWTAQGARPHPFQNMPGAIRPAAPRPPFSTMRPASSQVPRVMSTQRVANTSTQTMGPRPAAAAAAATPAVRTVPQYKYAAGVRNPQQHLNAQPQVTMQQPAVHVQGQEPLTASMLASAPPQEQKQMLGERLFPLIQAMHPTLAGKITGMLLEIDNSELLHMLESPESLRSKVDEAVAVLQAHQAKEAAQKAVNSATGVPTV
# HIV Env fusion: HIV envelope-mediated fusion inhibition; inhibition, % at 12.3 µM; AID 651610; 1.1% of 360,000 active; HeLa-JRFL Env/CEM21 cell fusion, luciferase;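 active = mean replicate inhibition score of at least 50 and every replicate individually at or above 50; inconclusive = only one of the two criteria met; inactive = mean below 50 and not all replicates reaching 50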;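 note: 0% = plate neutral controls and 100% = maraviroc near 300 nM; one replicate is shown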
# MT1-MMP act inh: blocks activation of human MT1-MMP | P50281 | HT1080 RFP-PRO-GFP cells, GFP/RFP ratio fluorescence, overnight; percent of plate control window, DMSO zero | GFP/RFP ratio change, % at 20 µM | 0.061% of 360,000 active | AID 651647;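 active = GFP/RFP ratio change of at least 30% with cell ATP level not reduced by more than half and red fluorescence within 50% of control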; note: strong numbers were not always called active
#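 Material – HT1080 RFP-PRO-GFP cells · Control set – DMSO wells and RFP-L50D-GFP cells · Incubation – overnight cell settling, then overnight compound exposure, 37 °C, 5% CO2 · Compound dosing – single-point 20 µM compound, 1% DMSO · Read-out – GFP/RFP fluorescence ratio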
# CSC inhib: blocks cancer stem cells | cancer stem cell-like cells viability, luminescence | inhibition, % at 7.5 µM | 1.1% of 300,000 active;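 active = mean at 75% or more and at least half the replicates too; inconclusive = mean and replicates disagree; tested in HMLE shEcad cells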;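 note: 0% = median of negative and 100% = median of positive control wells; the first replicate is given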
# eIF4H inh: inhibitors of RNA binding by human eIF4H. eIF4H fluorescence polarization binding assay. inhibition, % at 35 µM. 0.94% of 290,000 active. AID 2012;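 active = 50% or more with normal probe brightness, or confirmed in later tests; inconclusive = above 50% with abnormal brightness, or retests that disagree; inactive = below 50% or failed in later tests; about a fifth of its hits are not listed in these tables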;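 note: calls also rest on retests at 20 µM and on dose response follow-up; 0% = protein and probe with vehicle and 100% = probe without protein; strong numbers were not always called active; many hits fall short of the cut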
# Rce1 inhib: yeast Ras-converting enzyme inhibition. Q03530. yeast membranes, quenched prenylated peptide cleavage fluorescence. calls only. 0.27% of 290,000 active. AID 2563;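 active = fall in fluorescence gain of 50% or more versus controls, with final raw signal at or below 3038400; inconclusive = same 50% fall but final raw signal above 3038400; inactive = fall in fluorescence gain under 50%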;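 note: plate controls were neutral control wells for no effect and wells lacking membranes for full effect; tested at 10 µM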
# Target sequence (Q03530 whole entry, looked up): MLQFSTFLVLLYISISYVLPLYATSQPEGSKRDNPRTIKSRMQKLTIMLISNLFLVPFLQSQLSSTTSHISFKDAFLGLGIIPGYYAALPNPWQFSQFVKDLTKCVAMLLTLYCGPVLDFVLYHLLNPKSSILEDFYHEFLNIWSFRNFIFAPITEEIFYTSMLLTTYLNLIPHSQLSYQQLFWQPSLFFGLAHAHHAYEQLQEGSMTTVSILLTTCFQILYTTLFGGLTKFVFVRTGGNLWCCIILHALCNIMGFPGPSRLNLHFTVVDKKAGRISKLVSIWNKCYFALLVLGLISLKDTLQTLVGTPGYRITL
# PABP polyA inh retest: also measured in PABP polyA inh; calls as there; inhibition, %; compound at 20 µM; confirmation repeats;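 mean of two retest wells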
# MT1-MMP act inh RFP: recorded beside MT1-MMP act inh, whose call it bears; RFP signal change, %; measured here: RFP expression control read;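 0 = vehicle wells; hits needed this value within 50% of zero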
# Starred values were filed as active, the others as inactive; i = inactive; u = inconclusive; x = no result given. These rows are one share of the data; rates above refer to the full screens.
SMILES,Yeast UUG start,PABP polyA inh,HIV Env fusion,MT1-MMP act inh,MT1-MMP act inh RFP,CSC inhib,eIF4H inh,Rce1 inhib,others
Cc1nonc1C(=O)N1CCCC(N2CCN(c3ccc(F)cc3)CC2)C1 (stereo not drawn),-21,-4,10,-1,0,-4,4,i,
C=CCN1CCN(C(CCC)c2nnnn2Cc2ccco2)CC1 (stereo not drawn),x,1,-12,0,1,-4,-17,i,
CCN1CCCC1CNC(=O)C(=O)NCc1ccccc1 (stereo not drawn),-13,-12,-2,4,3,37,-1,i,
Cc1ccc(NC(=O)CCNC(=O)c2ccco2)cc1,x,3,16,1,3,-3,-6,i,
Cc1cc(C(=O)NCCCN2CCN(c3cc(Cl)ccc3C)CC2)n(-c2ccccc2)n1,-4,6,2,1,-1,20,2,i,
CCCCOc1ncnc2c1[nH]c1ccccc12,-6,0,x,-15,-27,-6,-8,i,
CCOC(=O)C1=C(C)NC(=O)CC1c1ccccc1 (stereo not drawn),-6,0,x,3,4,-9,4,i,
CN(C(=O)COc1cccc(Br)c1)C1CCS(=O)(=O)C1 (stereo not drawn),-8,-6,x,-1,-1,-4,0,i,
c1cc[n+](CCC[n+]2ccccc2)cc1,0,x,-11,-5,0,0,x,i,
COc1cc(NC(=O)COc2ccc(Cl)cc2)ccc1NC(=O)C(C)C,x,9,-18,3,-4,-6,-15,i,
CN(C(=O)CSc1ccc2c(c1)OCCO2)c1ccccc1,-11,x,-48,0,1,-16,x,x,
Cc1cc(OC(=O)c2ccc(S(=O)(=O)N3CCCCC3)cc2)c([N+](=O)[O-])c(=O)[nH]1,x,3,5,-5,2,-8,-10,i,
O=C(Nc1cccc(Cl)c1)C1=CC=CN2CCS(=O)(=O)N=C12,-1,x,-3,2,0,-7,x,x,
COc1cc2c(cc1OC)C(=O)CCS2,-12,-4,x,-4,1,-14,7,i,
CCOC(=O)Nc1cccc(OCC(=O)Nc2ccc3c(c2)CCC3)c1,-12,x,x,-2,-12,-3,x,x,
CN(C)S(=O)(=O)c1cccc(NC(=O)c2ccc(S(=O)(=O)N3CCCCC3)cc2)c1,-12,x,-7,-4,-13,-8,x,x,
c1ccc2c(c1)CCN(Cc1nnnn1Cc1ccc3c(c1)OCO3)C2,-3,-9,x,-4,-2,-13,6,i,
COc1cccc(NC2SC(=O)N(c3ccccc3)C2=O)c1 (stereo not drawn),-14,-17,-23,-1,4,29,-4,i,
COc1ccc(CC(=O)N(C)Cc2cccc(F)c2)cc1S(=O)(=O)N1CCOCC1,7,x,-1,3,2,-4,x,i,
Cc1cccc(C)c1OCc1nnc2c3cnn(C)c3ncn12,-11,6,-39,-3,-3,16,-3,i,

# The list goes on (2 carried over from the part before).
SMILES,Yeast UUG start,PABP polyA inh,HIV Env fusion,MT1-MMP act inh,MT1-MMP act inh RFP,CSC inhib,eIF4H inh,Rce1 inhib,others
COc1ccc(CC(=O)N(C)Cc2cccc(F)c2)cc1S(=O)(=O)N1CCOCC1,7,x,-1,3,2,-4,x,i,
Cc1cccc(C)c1OCc1nnc2c3cnn(C)c3ncn12,-11,6,-39,-3,-3,16,-3,i,
Cc1nn(C)cc1NC(=O)CCSc1nc(-c2ccco2)cc(C(F)(F)F)n1,-13,-1,x,2,3,0,-12,i,
Cc1cccc(C)c1OCC(=O)NNC(=O)CNC(=O)c1ccc(OC(F)F)cc1,1,x,2,2,6,-7,x,x,
Cc1ccc([N+](=O)[O-])c2cccnc12,-9,5,-50,2,2,-10,6,i,
CS(=O)(=O)Nc1cc2c3c(c1)CCC(=O)N3CCC2,1,2,11,0,3,-3,2,i,
Cc1cc(NC(=O)CCC(=O)N(c2ccccc2)C(C(=O)NC2CCCC2)c2ccncc2)no1 (stereo not drawn),-13,-2,-57,0,2,x,2,i,
O=C(Nc1nnc([C@@H]2C[C@H](O)[C@@H](CO)O2)s1)c1ccccc1Cl,-19,x,-19,-1,4,x,x,x,
COc1ccc(-c2nn(-c3ccccc3)cc2C(=O)N2CCN(S(=O)(=O)c3ccccc3C#N)CC2)cc1,-15,x,x,2,-4,-8,x,i,
Cc1cc(C)n(-c2ccc(C(=O)Nc3ccc(S(=O)(=O)N(C)C)cc3)cc2)n1,x,4,x,-8,-26,x,11,i,
CCOC(=O)c1c(N2C(=O)Nc3cc(Cl)c(Cl)cc3N2O)sc2c1CCCCC2,4,12,x,-4,-3,-6,-3,x,
Cn1c(SCC(=O)OC2CCCCC2)nnc1-c1ccc2c(c1)OCO2,-9,-6,-41,16,12,6,-14,i,
CCOC(=O)C(C)Oc1ccc2c(-c3cccc([N+](=O)[O-])c3)cc(=O)oc2c1 (stereo not drawn),x,-24,-57,x,x,x,-7,i,
CCOC(=O)c1cc(-c2ccccc2)sc1NC(=O)CSc1nncs1,x,6,0,0,3,38,0,i,
COc1ccccc1CCc1nnc(CCC(=O)NCC[C@@H]2C[C@@H]3C=C[C@H]2C3)o1,-3,-8,4,1,1,-4,-1,i,
O=C(NCc1ccccc1)c1cccc(NC(=O)C2CC2)c1,-5,x,2,1,6,x,x,x,
CCOc1ccccc1NC(=O)CSc1nnc(-c2ccccc2Cl)n1Cc1ccco1,-21,8,x,-1,-1,8,1,i,
COc1ccccc1N(CC(=O)NC(C)(C)C)C(=O)CCC(=O)Nc1nccs1,0,10,21,0,1,-14,-5,i,
CCOC(=O)C1=C(CCc2ccccc2)NC(=O)NC1c1ccc(Br)cc1 (stereo not drawn),1,8,-5,7,-2,-6,-6,i,
CCCOc1cccc(-c2nn(-c3ccccc3)cc2/C=C(\C#N)C(=O)NCCCn2ccnc2)c1,6,50*,14,-17,0,8,u,i,PABP polyA inh retest=124*
Cc1n[nH]c(=O)c2c1nnn2Cc1ccccc1Cl,-13,8,1,0,-1,1,2,i,
COc1ccccc1CNC(=O)COc1ccc([N+](=O)[O-])cc1,x,-14,12,2,1,-4,4,i,
COc1ccc(Cn2c(-c3ccc(Br)cc3)c[n+]3ccccc23)cc1,-7,-31,-12,-14,-29,17,2,i,
CCc1ccccc1N1CN(Cc2ccco2)CNC1=S,-8,-5,9,4,2,-7,-2,i,
CSc1nnc2c3ccccc3c3ccccc3c2n1,9,6,-100,-8,-2,x,6,i,
CCCCC(=O)Nc1nnc(CCc2ccccc2)s1,-1,-4,-8,-2,1,-5,-13,i,
CC(C)NC(=O)c1cc(C2CCCCN2C(=O)c2ccc(Cl)cc2)on1 (stereo not drawn),-3,x,-2,0,3,x,x,x,
CCOc1ccccc1N1CC(C(=O)Nc2ccc(C(=O)O)cc2)CC1=O (stereo not drawn),-1,-3,x,7,3,-13,-2,i,
O=S(=O)(N1CCCCC1)n1c(Cc2ccccc2)nc2ccccc21,-7,-2,x,-1,-7,14,-8,i,
O=C(CSc1nnc(Cc2ccsc2)o1)c1ccccc1,-9,-3,-26,2,2,-10,-6,i,
O=C(Nc1cccc(O)c1)c1cc(-c2ccco2)on1,-54,-5,x,-2,-3,10,9,i,
Cc1ccc(OCCn2c(=O)cnc3ccccc32)cc1,-4,-3,x,-7,-13,-3,-8,i,
O=C(NNC(=O)c1ccc(=O)[nH]c1)c1ccc(NS(=O)(=O)c2cccs2)cc1,-19,x,x,0,1,-12,x,x,
COc1ccc(NC(C)=O)cc1NC(C)C(=O)Nc1cccc2ccccc12 (stereo not drawn),x,-6,x,6,1,-9,-1,x,
Oc1c(Br)cc(Br)cc1/C=N/c1nc2c(s1)CCCC2,-21,x,x,0,1,11,x,i,
CN1OC[C@@H]2CN(S(=O)(=O)c3cccc4ccccc34)[C@H](c3ccc(N4CCCCC4)cc3)C[C@@H]21,3,x,-65,0,-2,x,x,x,
CC(C)c1cc(C(=O)N2CCCC(CCC(=O)NCc3ccccc3F)C2)n(C)n1 (stereo not drawn),-11,4,-4,-5,-18,-30,8,i,
Cc1ccccc1-n1c(=O)n(Cc2ccccc2)c(=O)c2[nH]cnc21,x,10,-8,0,4,-9,-6,i,

# As a short view, some entries already given.
SMILES,Yeast UUG start,PABP polyA inh,HIV Env fusion,MT1-MMP act inh,MT1-MMP act inh RFP,CSC inhib,eIF4H inh,Rce1 inhib,others
Cc1n[nH]c(=O)c2c1nnn2Cc1ccccc1Cl,-13,8,1,0,-1,1,2,i,
COc1ccccc1CNC(=O)COc1ccc([N+](=O)[O-])cc1,x,-14,12,2,1,-4,4,i,
COc1ccc(Cn2c(-c3ccc(Br)cc3)c[n+]3ccccc23)cc1,-7,-31,-12,-14,-29,17,2,i,
CCc1ccccc1N1CN(Cc2ccco2)CNC1=S,-8,-5,9,4,2,-7,-2,i,
CSc1nnc2c3ccccc3c3ccccc3c2n1,9,6,-100,-8,-2,x,6,i,
CCCCC(=O)Nc1nnc(CCc2ccccc2)s1,-1,-4,-8,-2,1,-5,-13,i,
CC(C)NC(=O)c1cc(C2CCCCN2C(=O)c2ccc(Cl)cc2)on1 (stereo not drawn),-3,x,-2,0,3,x,x,x,
CCOc1ccccc1N1CC(C(=O)Nc2ccc(C(=O)O)cc2)CC1=O (stereo not drawn),-1,-3,x,7,3,-13,-2,i,
O=S(=O)(N1CCCCC1)n1c(Cc2ccccc2)nc2ccccc21,-7,-2,x,-1,-7,14,-8,i,
O=C(CSc1nnc(Cc2ccsc2)o1)c1ccccc1,-9,-3,-26,2,2,-10,-6,i,
O=C(Nc1cccc(O)c1)c1cc(-c2ccco2)on1,-54,-5,x,-2,-3,10,9,i,
Cc1ccc(OCCn2c(=O)cnc3ccccc32)cc1,-4,-3,x,-7,-13,-3,-8,i,
O=C(NNC(=O)c1ccc(=O)[nH]c1)c1ccc(NS(=O)(=O)c2cccs2)cc1,-19,x,x,0,1,-12,x,x,
COc1ccc(NC(C)=O)cc1NC(C)C(=O)Nc1cccc2ccccc12 (stereo not drawn),x,-6,x,6,1,-9,-1,x,
Oc1c(Br)cc(Br)cc1/C=N/c1nc2c(s1)CCCC2,-21,x,x,0,1,11,x,i,

# Compound activity from PubChem BioAssay.
